CSC inhib = cancer stem cell inhibition. cancer stem cell-like cells viability, luminescence. inhibition, % at 7.5 µM. 300,000 compounds, 1.1% hits. AID 2717;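 active = mean at 75% or more and at least half the replicates too; inconclusive = mean and replicates disagree; tested in HMLE shEcad cells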;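 also: 0% = median of negative and 100% = median of positive control wells; the first replicate is given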
Env fusion inh = inhibitors of HIV Env-mediated cell fusion. HeLa-JRFL Env/CEM21 cell fusion, luciferase. inhibition, % at 12.3 µM. 360,000 compounds, 1.1% hits;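 active = mean replicate inhibition score of at least 50 and every replicate individually at or above 50; inconclusive = only one of the two criteria met; inactive = mean below 50 and not all replicates reaching 50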;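 also: 0% = plate neutral controls and 100% = maraviroc near 300 nM; one replicate is shown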
MT1-MMP act inh = MT1-MMP (human) activation inhibition | HT1080 RFP-PRO-GFP cells, GFP/RFP ratio fluorescence, overnight; percent of plate control window, DMSO zero | GFP/RFP ratio change, % at 20 µM | 360,000 compounds, 0.061% hits;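 active = GFP/RFP ratio change of at least 30% with cell ATP level not reduced by more than half and red fluorescence within 50% of control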; also: strong numbers were not always called active
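Read-out: GFP/RFP fluorescence ratio; Test system: RFP-PRO-GFP reporter HT1080 cells; Compound dosing: single-point 20 µM compound, 1% DMSO; Times: overnight compound exposure at 37 °C.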
eIF4H inh = inhibitors of RNA binding by human eIF4H; Q15056; eIF4H fluorescence polarization binding assay; inhibition, % at 35 µM; 290,000 compounds, 0.94% hits; AID 2012;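 active = 50% or more with normal probe brightness, or confirmed in later tests; inconclusive = above 50% with abnormal brightness, or retests that disagree; inactive = below 50% or failed in later tests; about a fifth of its hits are not listed in these tables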;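 also: calls also rest on retests at 20 µM and on dose response follow-up; 0% = protein and probe with vehicle and 100% = probe without protein; strong numbers were not always called active; many hits fall short of the cut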
Rce1 inhib = yeast Ras-converting enzyme inhibition; Q03530; yeast membranes, quenched prenylated peptide cleavage fluorescence; calls only; 290,000 compounds, 0.27% hits; AID 2563;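 active = fall in fluorescence gain of 50% or more versus controls, with final raw signal at or below 3038400; inconclusive = same 50% fall but final raw signal above 3038400; inactive = fall in fluorescence gain under 50%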;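 also: plate controls were neutral control wells for no effect and wells lacking membranes for full effect; tested at 10 µM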
Target sequence (Q03530 whole entry, looked up): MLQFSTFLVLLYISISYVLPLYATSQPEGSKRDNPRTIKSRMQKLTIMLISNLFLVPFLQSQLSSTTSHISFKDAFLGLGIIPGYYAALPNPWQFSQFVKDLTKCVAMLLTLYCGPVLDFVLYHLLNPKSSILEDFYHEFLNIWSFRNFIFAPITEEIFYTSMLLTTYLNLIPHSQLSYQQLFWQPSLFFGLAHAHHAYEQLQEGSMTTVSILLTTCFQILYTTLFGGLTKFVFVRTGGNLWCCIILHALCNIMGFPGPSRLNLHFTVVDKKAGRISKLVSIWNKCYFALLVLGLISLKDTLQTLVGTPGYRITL
UUG fidelity = yeast start codon fidelity modulation | activity score, % at 18.7 µM | 350,000 compounds, 0.13% hits | S. cerevisiae UUG-firefly luciferase reporter, luminescence/redox ratio | AID 602363;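 active = replicate mean at a twofold rise or more, about +100% in these data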;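 also: firefly luciferase made from a UUG start codon reports start codon fidelity; reporter light over untreated wells divided by growth signal over untreated wells; some hits fall short of that in this replicate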
PABP FP inh = blocks human PABP binding to poly(A) RNA; P11940; fluorescence polarization; inhibition, % at 35 µM; 290,000 compounds, 1% hits;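 active = 50% or more with normal probe brightness, or confirmed in later tests; inconclusive = above 50% with abnormal brightness, or retests that disagree; inactive = below 50% or failed in later tests; about a fifth of its hits are not listed in these tables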;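 also: calls also rest on retests at 20 µM and on dose response follow-up; controls were probe without protein and protein plus probe with vehicle; some compounds called inactive have numbers as strong as hits; many hits fall short of the cut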
eIF4H inh retest = second read-out of eIF4H inh, no call of its own (marks repeat the call); inhibition, %; compound at 20 µM; confirmation average;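 mean of two retest wells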
PABP FP inh retest = recorded beside PABP FP inh, whose call it bears; inhibition, %; compound at 20 µM; confirmation repeats;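 mean of two retest wells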
MT1-MMP act inh RFP = further read-out of MT1-MMP act inh, marked with its call; RFP signal change, %; measured here: RFP expression control read;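 0 = vehicle wells; hits needed this value within 50% of zero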
* marks the source's active call; other numbers are inactive results; i = inactive; ? = inconclusive; / = not tested or not shown; & = joins results of further samples.

SMILES	CSC inhib	Env fusion inh	MT1-MMP act inh	MT1-MMP act inh RFP	eIF4H inh	Rce1 inhib	UUG fidelity	PABP FP inh	others
Cc1ccc(S(=O)(=O)N(CC(=O)N2CCOCC2)CC(=O)N2CCOCC2)cc1	-6	-7	6	15	8	i	-11	-11
CC1CN(S(=O)(=O)c2ccc(NC(=O)c3ccco3)cc2)CC(C)O1 (centres undefined)	-7	1	5	-1	-5	i	/	3
COc1ccc([C@H]2CC(=O)C=C(c3ccc(Br)c4ccccc34)C2)cc1	/	27	1	-2	/	/	-17	/
COC(=O)c1ccccc1NC(=O)N1c2ccccc2Sc2ccccc21	65	42	-3	1	-4	i	/	-5
O=C(COC(=O)CSc1ccc([N+](=O)[O-])cc1)NC1CCCCCCC1	-8	1	0	3	/	/	-21	/
CC1(C)CC(=O)C/C(=N\NC(=O)c2cccs2)C1	-19	-6	-3	-3	15	i	-14	-4
COC(=O)NC1CCC(CC2CCC(NC(=O)OC)CC2)CC1 (centres undefined)	/	/	-3	-3	-14	/	-10	-1
O=c1c2ccccc2nc(SCc2nnc(-c3ccccc3)o2)n1-c1ccccc1	0	/	-1	-5	-4	i	-19	1
CNC(=O)CSc1nnnn1-c1ccc(C)cc1C	4	/	-1	0	0	i	-16	5
COC(=O)C1=C(C)N(C)C(=O)NC1c1ccc(O)c(OC)c1 (centres undefined)	-12	-6	1	4	8	i	-31	5
CCn1c(COc2ccccc2)nnc1SCC(=O)Nc1ccc(N2CCOCC2)cc1	2	0	1	3	-5	i	-42	4
CC(OC(=O)c1ccc(Cl)nc1)C(=O)NCc1ccc2c(c1)OCO2 (centres undefined)	2	-2	0	-1	/	i	10	/
O=C1CS/C(=N\NC(=O)c2ccccc2)N1	-3	-59	-1	-1	-1	i	-19	-5
CCCCC(=O)Nc1ccccc1C(=O)N1CCOCC1	-6	-23	4	-1	-4	i	5	?
O=C(NCC(=O)N1CCN(c2ncc(C(F)(F)F)cc2Cl)CC1)c1ccc(Br)o1	-1	21	3	-9	-7	i	-5	3
CC(C)(C)c1nc(SCC(=O)N2CC(=O)Nc3ccccc32)c2ccccc2n1	11	14	-8	-11	8	/	/	-3
C=CCN1C=C2C(=O)C(C)(OC(=O)CCC(=O)OC)C(=O)C(Br)=C2C=C1c1ccc(OC)cc1 (centres undefined)	1	/	5	11	95*	i	-3	50*
COc1ccc(Cc2nnc(NC(=O)C3CC(=O)N(CCc4ccc(F)cc4)C3)s2)cc1OC (centres undefined)	/	20	4	-3	-2	i	-11	5
CCOC(=O)Nc1ccc2c(CNC(C)c3ccccc3OC)cc(=O)oc2c1 (centres undefined)	-15	3	3	-2	-10	i	-1	-6
CC(=O)OCCN1CCN(C(=O)CN2C(=O)NC(c3ccccc3)(c3ccccc3)C2=O)CC1	10	-3	0	0	4	i	-9	12

Gathered by group, the compounds so far with an aryl methoxy group
SMILES	CSC inhib	Env fusion inh	MT1-MMP act inh	MT1-MMP act inh RFP	eIF4H inh	Rce1 inhib	UUG fidelity	PABP FP inh	others
COc1ccc([C@H]2CC(=O)C=C(c3ccc(Br)c4ccccc34)C2)cc1	/	27	1	-2	/	/	-17	/
COC(=O)C1=C(C)N(C)C(=O)NC1c1ccc(O)c(OC)c1 (centres undefined)	-12	-6	1	4	8	i	-31	5
C=CCN1C=C2C(=O)C(C)(OC(=O)CCC(=O)OC)C(=O)C(Br)=C2C=C1c1ccc(OC)cc1 (centres undefined)	1	/	5	11	95*	i	-3	50*
COc1ccc(Cc2nnc(NC(=O)C3CC(=O)N(CCc4ccc(F)cc4)C3)s2)cc1OC (centres undefined)	/	20	4	-3	-2	i	-11	5
CCOC(=O)Nc1ccc2c(CNC(C)c3ccccc3OC)cc(=O)oc2c1 (centres undefined)	-15	3	3	-2	-10	i	-1	-6

Structures listed so far with bromine:
SMILES	CSC inhib	Env fusion inh	MT1-MMP act inh	MT1-MMP act inh RFP	eIF4H inh	Rce1 inhib	UUG fidelity	PABP FP inh	others
COc1ccc([C@H]2CC(=O)C=C(c3ccc(Br)c4ccccc34)C2)cc1	/	27	1	-2	/	/	-17	/
O=C(NCC(=O)N1CCN(c2ncc(C(F)(F)F)cc2Cl)CC1)c1ccc(Br)o1	-1	21	3	-9	-7	i	-5	3
C=CCN1C=C2C(=O)C(C)(OC(=O)CCC(=O)OC)C(=O)C(Br)=C2C=C1c1ccc(OC)cc1 (centres undefined)	1	/	5	11	95*	i	-3	50*

Next entries
SMILES	CSC inhib	Env fusion inh	MT1-MMP act inh	MT1-MMP act inh RFP	eIF4H inh	Rce1 inhib	UUG fidelity	PABP FP inh	others
CCOC(=O)c1cnc2sccn2c1=O	-18	/	-1	-1	-6	i	-13	-7
c1ccc2c(Cn3ccnc3)cccc2c1	-3	4	0	0	4	i	-10	0
COCc1cc(C(C)=O)ccc1OCC(=O)Nc1ccc(NC(C)=O)cc1	-11	5	1	1	92	i	/	-10	eIF4H inh retest=0;PABP FP inh retest=8
Cc1cccc(OCC(=O)N/N=C\c2cccn2C)c1C	-8	6	2	-3	-4	i	9	-6
Fc1ccccc1-c1nc(NCc2ccccc2)c2ccccc2n1	12	3	1	-3	-4	i	-1	-10
Cc1ccc2c(Cl)c(C(=O)N/N=C/c3cccn3C)sc2c1	50	-8	-1	-2	-3	i	-7	10
COc1c(C)cc(Br)cc1C(=O)Nc1ccc(S(N)(=O)=O)cc1	-5	-10	0	2	4	/	/	15
CCc1cc(=O)oc2c(CNCc3ccc(OC)cc3OC)c(O)c(Cl)cc12	-6	-11	3	0	3	i	0	20
COc1cccc(NC(=S)N2CCC(N(C)CC3CCCO3)CC2)c1 (centres undefined)	9	-13	1	1	4	i	-19	-11
Cc1ccc[n+](/C(=C\C(=C=[N-])C#N)C(=O)c2ccc(Cl)cc2)c1	/	-11	3	3	2	i	/	-4
NC(Cc1ccccc1)c1csc(Nc2ccc(C(F)(F)F)cn2)n1 (centres undefined)	/	25	1	6	/	/	-6	/
CCCCN(C(=O)C1CCN(C(=O)c2ccccc2C)CC1)c1c(N)n(CCCC)c(=O)[nH]c1=O	/	-6	1	4	-4	i	1	-2
COc1ccc(CCNC(=O)c2cc3c(=O)n(C)c4ccccc4c3n2C)c(OC)c1	5	-8	1	-1	-7	i	-3	-4
O=C(NC1CCS(=O)(=O)C1)C1CCCCN1S(=O)(=O)c1ccc(Cl)cc1 (centres undefined)	5	/	2	5	-7	/	-2	11
O=C(Nc1ccc(F)cc1)N1CCn2c(nc3ccccc32)C1	/	/	3	-1	-2	i	-3	-17
CCOC(=O)c1c(NC(=O)COC(=O)c2nccnc2N)sc2c1CCC2	-5	/	4	-5	/	/	-7	/
COc1ccc(S(=O)(=O)N(C)C[C@@H]2Oc3c(NS(=O)(=O)c4cn(C)cn4)cccc3C(=O)N([C@@H](C)CO)C[C@@H]2C)cc1	-1	-93	-6	0	/	/	-15	/
CS(=O)(=O)N1CCc2ccc(NC(=O)C3CCCO3)cc2C1 (centres undefined)	-9	-12	1	2	-4	/	-11	0
O=C(c1ccccc1Br)N1CCN(Cc2ccc3c(c2)OCO3)CC1	-3	27	-2	-9	-2	i	-11	6
CCOC(=O)C1=C(C)NC(C)=C(C(=O)OCC)C1/C=C/c1ccccc1OC	13	28	-6	-4	-4	i	/	-1
C[C@@H]1CCCCO[C@@H](CN(C)Cc2ccccc2)[C@@H](C)CN([C@H](C)CO)C(=O)c2cc(NC(=O)Nc3cccc4ccccc34)ccc2O1	/	-73	8	3	/	/	-7&0	/
CN(CCOc1ccccc1)CC(=O)Nc1ccc(Cl)c(S(=O)(=O)N(C)C)c1	-6	22	0	-10	2	i	/	-1
Cc1cc(Br)cn2c(Cc3cccc(F)c3)c(-c3ccc(Cl)cc3)nc12	/	-10	-5	-11	/	/	8	/
CC(CN1CCN(CCOCCO)CC1)CN1c2ccccc2Sc2ccc(Cl)cc21 (centres undefined)	/	-2	-1	-6	/	/	-5	/
COc1cccc(SCc2noc(C(=O)NCC3CCCO3)c2C(=O)O)c1 (centres undefined)	-14	4	2	-2	-5	i	-8	5
Cc1cc(N2C(=O)CC(C(C)c3ccccc3)C2=O)no1 (centres undefined)	3	/	-4	0	6	i	-32	-2
Cc1cc(Nc2ccccc2F)n2nc(C)nc2n1	-14	-9	1	2	0	i	-5	4
Fc1ccc(C2c3[nH]c4ccccc4c3CCN2Cc2cccn2-c2ncccn2)cc1 (centres undefined)	-8	-16	0	0	50	i	/	37	eIF4H inh retest=-12;PABP FP inh retest=-1
CC(=O)c1cc(NC(=O)c2ccc([N+](=O)[O-])cc2)c(=O)oc1C	-6	-8	1	4	10	i	/	-5
Cc1ccc(C(=O)C[n+]2cccc3ccccc32)cc1	-6	-18	1	8	40	i	36	-1
CCCNC(=O)Cn1nc(C)n2c(cc3cc(F)ccc32)c1=O	-22	3	0	3	-2	i	2	16
Cc1ccc(-c2nc(CS(=O)CC(=O)NCc3ccccn3)c(C)o2)cc1 (centres undefined)	-8	26	-1	3	1	i	-12	2
C=CCOc1ccccc1CNCCCN1CCOCC1	-9	/	7	8	-4	i	-12	6
COC(=O)c1ccc(CSc2nc3cc(Cl)ccc3s2)o1	-5	/	-3	3	-5	i	-27	-9
S=c1[nH]nc(-c2cccc3ccccc23)n1-c1cccnc1	-16	5	1	-1	9	i	-3	0
CCCOC(=O)c1ccc(Nc2cc(C)nc3ncnn23)cc1	-4	/	-3	-3	-6	i	-1	1
COc1ccc(CC(=O)NNC(=O)c2cccs2)cc1	2	3	-1	-2	-5	i	/	12
COc1ccc(NC(=O)Cc2nc3ccccc3[nH]2)cc1	-9	/	0	-2	0	i	-26	-5
CN(C(=O)CSc1nc2c(c(=O)[nH]1)CCC2)c1ccccc1	-9	-2	2	4	-6	i	0	-1
Cc1ccc(NC(=O)NNC(=O)c2cc3ccccc3cc2O)cc1	9	-15	2	7	-8	i	-15	-3
CC(C)[C@H](NC(=O)NCCc1ccccc1)C(=O)O	-7	/	2	6	0	i	-15	8

In the list so far, 4 have a thiophene ring, fused or not.
SMILES	CSC inhib	Env fusion inh	MT1-MMP act inh	MT1-MMP act inh RFP	eIF4H inh	Rce1 inhib	UUG fidelity	PABP FP inh	others
CC1(C)CC(=O)C/C(=N\NC(=O)c2cccs2)C1	-19	-6	-3	-3	15	i	-14	-4
Cc1ccc2c(Cl)c(C(=O)N/N=C/c3cccn3C)sc2c1	50	-8	-1	-2	-3	i	-7	10
CCOC(=O)c1c(NC(=O)COC(=O)c2nccnc2N)sc2c1CCC2	-5	/	4	-5	/	/	-7	/
COc1ccc(CC(=O)NNC(=O)c2cccs2)cc1	2	3	-1	-2	-5	i	/	12

Compound activity as filed in PubChem BioAssay.

The list is partial, so the mix of outcomes need not match the whole.
